Assay outcomes: PubChem BioAssay, National Center for Advancing Translational Sciences (NCATS)
Marburg entry inh: qHTS for inhibitors of binding or entry into cells for Marburg Virus. Potency, µM (highest dose often 37.8 µM), for the others: at the highest dose activity change, negative = inhibition, hits mostly inhibitors. actives 1.8% (n = 300,000). Marburg virus pseudotyped entry inhibition, cell reporter; control for the full effect not named in the record; about a third of the inactives were read at about 46 µM; active = well fitted inhibition curve with a large enough effect; inconclusive = small, poorly fitted or top-dose-only effect, or effect the other way; inactive = flat fitted curve, though single readings scatter; tested in HEK293 cells; about a fifth of its hits are not listed in these tables; note: % is set by controls: 0 for no effect and ±100 for the full control effect; luciferase read-out
RE007 growth inh: qHTS Assay for Inhibitors of the HIV-1 protein Vpr; S. pombe RE007 Vpr strain, BacTiter-Glo ATP luminescence, 24 h; control for the full effect not named in the record; Potency, µM (series often up to 92.2 µM), for inactives: at the highest dose activity change, negative = less growth; actives 0.21% (n = 360,000); AID 651644, 2012; active = well fitted falling curve with a large enough effect; inconclusive = small, poorly fitted or top-dose-only effect; inactive = no such curve, though single readings can be large or run the other way;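 note: % is set by controls: 0 for no effect and ±100 for the full control effect; nearly all actives have a fitted effect of over 50% in size; the assay follows cell death caused by Vpr and the record does not say whether a fall means rescue or toxicity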
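Fission yeast strain RE007, carrying one chromosomally integrated HIV-1 vpr copy, was seeded at OD 0.01 in PMG+AL medium with 23 nL pinned compound. After 24 h at 30 °C and 99% humidity, viability was read by BacTiter-Glo luminescence.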
Cruzain noTriton: qHTS Assay for Promiscuous and Specific Inhibitors of Cruzain (without detergent); Potency, µM, for the others: max response, negative = inhibition, usual class: inhibitors; purified cruzain, Z-FR-AMC fluorescence, no detergent; actives 2.3% (n = 200,000); Cruzipain (Trypanosoma cruzi), P25779; active = well fitted curve in the direction sought with a large enough effect; inconclusive = small, poorly fitted or top-dose-only effect, or another doubt; inactive = no such curve, though single readings can be large; an effect the other way counts as inactive or inconclusive;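 note: plate controls were enzyme without inhibitor for no effect and buffer without enzyme for full effect; nearly all actives have a fitted effect of over 40% in size; top concentration of the series not given in the record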
Target sequence (P25779 123-467 limits assumed): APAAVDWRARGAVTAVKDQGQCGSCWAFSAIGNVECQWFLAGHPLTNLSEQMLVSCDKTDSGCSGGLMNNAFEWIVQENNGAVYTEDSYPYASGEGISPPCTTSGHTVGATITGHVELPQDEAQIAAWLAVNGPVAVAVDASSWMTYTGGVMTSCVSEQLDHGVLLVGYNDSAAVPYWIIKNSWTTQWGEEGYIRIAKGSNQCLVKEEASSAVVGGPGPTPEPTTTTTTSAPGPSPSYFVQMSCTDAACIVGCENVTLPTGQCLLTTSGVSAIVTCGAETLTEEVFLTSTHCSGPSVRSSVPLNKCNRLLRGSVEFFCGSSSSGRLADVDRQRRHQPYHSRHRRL
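Purified cruzain at 1.5 nM, pre-incubated 15 min with compound at room temperature in 100 mM sodium acetate pH 5.5, 5 mM DTT, 0.00005% Triton X-100. Reaction started with 2 uM Z-FR-AMC; AMC fluorescence increase over 60 s gives rate.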
Cruzain Triton: qHTS Assay for Promiscuous and Specific Inhibitors of Cruzain (with detergent). Cruzipain (Trypanosoma cruzi), P25779. purified cruzain, Z-FR-AMC fluorescence, 0.01% Triton. Potency, µM, inactives show max response, negative = inhibition, actives largely listed as inhibitors. actives 0.43% (n = 200,000); active = well fitted curve in the direction sought with a large enough effect; inconclusive = small, poorly fitted or top-dose-only effect, or another doubt; inactive = no such curve, though single readings can be large; an effect the other way counts as inactive or inconclusive;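 note: plate controls were neutral wells for no effect and buffer without enzyme for full effect; nearly all actives have a fitted effect of over 40% in size; top concentration of the series not given in the record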
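Detergent-containing run (0.01% Triton X-100) in acetate buffer pH 5.5 with 5 mM DTT: enzyme at 1.5 nM final, 15 min compound preincubation at room temperature, then 2 uM Z-FR-AMC substrate. Activity taken as 60 s fluorescence increase at 360/450 nm.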
NS1 function inh: qHTS Assay for Inhibitors of Influenza NS1 Protein Function; Potency, µM (highest dose often 46.1 µM), for inactives: at the highest dose activity, positive = more growth; S. cerevisiae slowed by influenza A NS1, growth recovery by OD600; actives 0.4% (n = 270,000); AID 2326, 2010; note: actives are rising curves; nearly all actives have a fitted effect of over 50% in size
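In this qHTS, NS1 from influenza A is expressed in budding yeast, where it slows growth. Cells are switched from glucose to 2% galactose medium (pH 6.0, -URA), treated with compound, and growth recovery is read at OD600.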
Lassa entry inh: qHTS for Inhibitors of binding or entry into cells for Lassa Virus; Lassa virus pseudotype entry inhibition, cell reporter; control for the full effect not named in the record; Potency, µM (titrated, usually from 37.9 µM), without a hit: at the top dose activity change, negative = inhibition, actives largely listed as inhibitors; actives 1.2% (n = 300,000); active means well fitted inhibition curve with a large enough effect; inconclusive means small, poorly fitted or top-dose-only effect, or effect the other way; inactive means flat fitted curve, though single readings scatter; tested in HEK293 cells; note: % is set by controls: 0 for no effect and ±100 for the full control effect; nearly all actives have a fitted effect of over 50% in size; luciferase read-out
StopGo reporter: High Throughput Screening for Foot and Mouth Disease Virus Antivirals. actives 1.2% (n = 410,000). Potency, µM (doses to about 57.9 µM), for inactives: at the highest dose signal change, negative = less light. human cells with a luciferase reporter of 2A StopGo recoding; control for the full effect not named in the record; active = well fitted falling curve with a large enough effect; inconclusive = small, poorly fitted or top-dose-only effect; inactive = no such curve, though single readings can be large or run the other way; tested in HEK293T cells; note: % is set by controls: 0 for no effect and ±100 for the full control effect; nearly all actives have a fitted effect of over 45% in size; luciferase light after 4 h
SARS PLP yeast: qHTS of Yeast-based Assay for SARS-CoV PLP | S. cerevisiae expressing SARS-CoV PLpro, growth rescue; control for the full effect not named in the record | Potency, µM (highest dose often 32.9 µM), without a hit: at the top dose activity, positive = growth rescue | actives 0.19% (n = 330,000); note: 0% is about no effect; nearly all actives have a fitted effect of over 55% in size; growth read by luminescence after 48 h
Active calls of the source: *; u = inconclusive; x = not tested or not shown; & = joins results of further samples; [ ] = remark or other dose. Unless noted, calls come from the whole dose curve; as a rule, active means well fitted rising curve with a large enough effect; inconclusive means small, poorly fitted or top-dose-only effect; inactive means no such curve, though single readings can be large or run the other way. Potency is the fitted concentration of half-maximal effect. An unsorted share of the library; 4.7% or so of the library scored in one or more.

canonical_smiles,Marburg entry inh,RE007 growth inh,Cruzain noTriton,Cruzain Triton,NS1 function inh,Lassa entry inh,StopGo reporter,SARS PLP yeast
O=C(NCCCn1ccnc1)/C(=C/c1ccc(Cl)cc1)NC(=O)c1ccccc1,-11.8%[46.1 µM],-2.6%,x,x,9.4%,x,50.3%[activator],1.6%
Cc1ccc(-c2nc(S(=O)(=O)c3ccc(Cl)cc3)c(N3CCCCC3)o2)cc1,x,x,6.5%,-0.9%,x,-9.3%[46.1 µM],17.1%,x
Cn1cnnc1Sc1nc([N+](=O)[O-])nn1C,x,20.0%,x,x,4.6%,x,4.2%,-0.2%
CCc1ccc(/C=C2\Oc3c(ccc(O)c3CN3CCN(CCO)CC3)C2=O)cc1,x,-11.0%,x,x,12.9%,x,3.2%,0.3%
COC(=O)Cc1[nH]n(-c2ccccc2)c(=O)c1C(C)=Nc1ccccc1,18.3%[46.1 µM],-3.2%,x,x,x,18.8%,56.9%[activator],-0.6%
COc1cccc2c(=O)ccoc12,-0.4%,-0.7%,-6.9%,4.2%,-7.4%,7.5%,13.8%,9.0%
COc1ccc(-c2nn(-c3ccccc3)cc2CN(C)CCn2ccnc2C)c(F)c1,x,-1.5%,x,x,4.4%,x,-7.5%,1.3%
O=C(Nc1ccc(Br)cc1)Nc1ccccc1F,10.0%[46.1 µM],-7.4%,x,x,-36.3%,u,5.4%,-3.4%
Cc1ccc(OCCSc2nnc(-c3cccs3)o2)cc1Cl,-1.9%[46.1 µM],x,5.5%,-7.1%,x,5.0%[46.1 µM],2.0%,x
O=C(c1cccs1)N1CCN(Cc2cccc([N+](=O)[O-])c2)CC1,17.5%,6.6%,-3.1%,1.7%,1.5%,10.0%,-8.2%,27.1%
O=C(CCN1C(=O)c2ccccc2S1(=O)=O)Nc1cccc(F)c1,8.7%[46.1 µM],0.4%,x,x,x,-8.8%,-16.0%,3.1%
Cc1cnc(NC(=O)CC2CCCC2)s1,-1.5%[46.1 µM],14.3%,x,x,x,u,28.8%,1.1%
CCCn1c(=O)c2sccc2n2c(CCCC(=O)NC3CCC(C)CC3)nnc12 (stereo not given),x,x,-1.3%,-1.1%,x,19.8%[46.1 µM],1.6%,x
Cc1cc(C)cc(N2CC(c3nc4ccccc4n3C)CC2=O)c1 (stereo not given),x,0.8%,-6.1%,-2.1%,-37.5%,x,-10.0%,-1.8%
Nc1c(C(=O)Nc2ccc(Cl)cc2)sc2nc(N3CCOCC3)c3c(c12)CCCC3,x,0.1%,x,x,17.0%,x,-4.8%,4.1%
CCCCN(CC)CCCNC(=S)Nc1ccc2nc(N3CCN(CC)CC3)cc(C)c2c1,3.55µM*,-9.7%,x,x,-7.4%,u,0.0%,2.6%
CC1(C)CC(=O)C=C(NCCN2CCN(C(=S)Nc3ccccc3)CC2)C1,10.0%,-1.6%,x,x,1.9%,u,-10.9%,0.2%
O=C(Nc1cc(C(F)(F)F)ccc1N1CCOCC1)c1cccc(F)c1,14.9%,5.1%,9.3%,-4.2%,3.6%,-0.9%,u,x
COCCn1c(SCc2cccnc2)nnc1-c1ccco1,12.0%[46.1 µM],-4.8%,5.2%,0.1%,2.7%,u,-0.7%,0.4%
COc1ccccc1OCCNC(=O)c1cccc(S(=O)(=O)N2CC(C)OC(C)C2)c1 (stereo not given),4.0%,0.5%,x,x,2.0%,-41.3%,0.0%,x
COc1ccc(N(CC(=O)NCCc2cccc(C)c2)S(=O)(=O)c2c(C)nn(C)c2C)cc1,u,x,u,-3.1%,x,-12.5%[46.1 µM],-24.1%,x
Cc1ccc(S(=O)(=O)N2CCN(CC(=O)NC3CCCc4ccccc43)CC2)cc1C (stereo not given),u,-5.0%&-2.9%,u,0.9%,-50.5%,-10.4%[46.1 µM],u,-3.9%
Cc1c(C(=O)N(Cc2ccncc2)CC2CCCO2)oc2c(F)cccc12 (stereo not given),x,-7.1%,x,x,-12.1%,x,3.9%,2.5%
COc1ccc(-c2cccc(-c3cc(=O)oc4cc(OC)c(OC)c(OC)c34)c2)cc1,x,-1.9%,-9.8%,-3.5%,x,x,-13.0%,13.3%
Cc1ccc(/C=C/C(=O)NN2CCN(C)CC2)cc1,18.5%[46.1 µM],5.5%,x,x,-4.0%,u,11.3%,2.5%
CC(=O)N(CCC(c1ccco1)C(C)C)Cc1ccc(Cl)cc1 (stereo not given),-25.1%[46.1 µM],-14.1%,x,x,-4.6%,10µM*,-28.2%,0.5%
NNC(=O)CNC(c1ccccc1)c1cc(Cl)ccc1NC(=O)c1ccccc1 (stereo not given),x,3.0%,x,x,u,x,-18.4%,2.5%
Cc1ccccc1N/C(SCc1ccc(Cl)cc1)=C(/C#N)C(N)=O,u,-9.6%,9.2%,-10.7%,-13.1%,-9.5%,-47.7%,-14.4%
Cc1ccc(/C=C(\NC(=O)c2ccccc2)C(=O)NCCc2ccccn2)o1,-1.5%,25.1%,-2.6%,-9.1%,20.9%,1.7%,11.0%,19.5%
COc1ccc(NC(=O)CC2CCCCC2)cc1OC,2.1%,-7.2%,4.9%,4.0%,-11.4%,27.9%,26.1%,1.1%
COCCNc1nnc(SCC(=O)N2CCN(S(=O)(=O)c3ccccc3)CC2)s1,u,-9.5%,-10.3%,-3.1%,-3.7%,6.7%,-9.1%,1.3%
CC(=O)Nc1ccc2ccccc2c1,4.4%,-8.3%,-2.4%,-1.5%,-11.5%,12.1%,x,5.7%
CCOc1cc(N2CCOCC2)c(OCC)cc1NC(C)C(=O)N1CCC(C)CC1 (stereo not given),12.5%,-12.1%,0.1%,-0.8%,-2.2%,-8.2%,-5.4%,28.1%
COc1ccc(-c2noc(-c3ccc(Cl)cc3[N+](=O)[O-])n2)cc1OC,u,x,u,-2.2%,13.9%,u,0.0%,-3.6%
Cc1nc(CSc2n[nH]c(=O)n2-c2ccccc2)cs1,x,1.2%,x,x,-4.0%,x,-4.7%,0.9%
COc1ccccc1-c1ccc(SCc2cccc(C)c2)nn1,15.8%,8.5%,x,x,x,12.1%,-8.9%,-2.8%
O=C(CCS(=O)(=O)c1cc(Br)cc2c1N(C(=O)C1CC1)CC2)Nc1ccc(Br)cc1F,1.7%[46.1 µM],x,-5.0%,-0.5%,x,u,-6.5%,x
CCC(=O)Nc1sc(Cc2ccc3c(c2)OCO3)c(C)c1C(N)=O,x,2.7%,x,x,-78.9%,x,-12.4%,-12.7%
CCOc1ccc2c(c1)c(=O)c(S(=O)(=O)c1ccc(CC)cc1)cn2C,1.8%[46.1 µM],6.3%,x,x,-5.5%,0.9%[46.1 µM],12.7%,20.5%
Cc1ccc(S(=O)(=O)NCCSc2ccccc2)cc1[N+](=O)[O-],4.4%,6.5%,4.0%,-6.5%,-60.9%,7.7%,15.7%,-13.9%
Cc1cc2c(cc1C)[n+](C)cn2CC(O)COCC1CC=CCC1 (stereo not given),10.8%[46.1 µM],-14.6%,x,x,-4.1%,11.8%,-22.3%,0.6%
CC(OC(=O)c1cccc([N+](=O)[O-])c1)C(=O)N1CCc2ccccc21 (stereo not given),3.7%,1.9%,x,x,x,-12.0%,-14.2%,-10.2%
CC1=NN(c2ccc(Cl)cc2)C(=O)C1C(c1cccc(O)c1)c1c(C)[nH]n(-c2ccc(Cl)cc2)c1=O (stereo not given),-10.4%,2.0%,-3.4%,-12.2%,14.4%,u,u,1.4%
O=C(CCn1c(=O)oc2ccccc21)NCCCN1CCN(c2ccc(F)cc2)CC1,-8.5%,13.6%[3.69 µM],3.5%,5.0%,-9.4%,-9.0%,-9.5%,-0.7%
CCn1c(SCc2nc3ccccc3[nH]2)nnc1-c1cccs1,u,-12.2%,-8.7%,1.5%,16.7%,6.6%,-28.2%,13.7%
C[C@H](NC(=O)OC(C)(C)C)C(=O)N/N=C/c1cccc2nccnc12,-7.0%,-8.3%,x,x,2.9%,-9.0%,-13.7%,0.9%
COc1ccccc1N1CCN(C(=O)C2CCN(S(=O)(=O)c3ccc(C)cc3)CC2)CC1,1.8%[46.1 µM],-14.1%,x,x,-2.1%,-21.1%,30.1%[activator],-0.4%
CC(Oc1cc2oc(=O)c3c(c2cc1Cl)CCC3)C(=O)NCc1ccncc1 (stereo not given),u,6.1%,x,x,-7.8%,-1.5%[46.1 µM],-23.3%,9.8%
O=C(CCn1c(=O)oc2ccccc21)N1CCCCCC1,2.0%,-16.9%,3.7%,0.9%,0.3%,3.9%,35.2%[activator],4.3%
CC1Cc2cc(/C=C3/SC(=S)NC3=O)ccc2O1 (stereo not given),0.1%[46.1 µM],1.4%,x,x,-83.6%,u,11.3%,-2.8%
O=C(COc1ccccc1Cl)NCC1(N2CCOCC2)CCCCC1,-23.6%[46.1 µM],x,5.7%,0.8%,x,12.4%[46.1 µM],-22.6%,x
CN(C(=O)c1c(Cl)cnn1C)C12CC3CC(CC(C3)C1)C2,u,12.3%,4.8%,0.5%,-14.6%,-17.9%,-9.2%,17.1%
CCCCN1C=CC(=C2C(=O)c3ccccc3C2=O)C=C1,u,u,x,x,x,x,10µM*,-6.0%
O=c1ccc2c(O)c3ccoc3cc2o1,x,6.7%,13.1%,-0.1%,x,x,-20.1%&-7.8%,-2.2%
COc1ccc(OCC2CNC(=O)O2)cc1 (stereo not given),6.2%,-9.2%,4.3%,-2.3%,-12.8%,u,-10.2%,u
COc1ccc(CNC(=O)c2ccc3ccccc3n2)cc1OC,u,-20.3%,x,x,-22.1%,u,u,-2.9%
Cc1cccc(S(=O)(=O)NCCNS(=O)(=O)c2cccc(C)c2)c1,-36.5%,3.6%,x,x,2.7%,18.5%,34.0%[activator],-0.8%
CCOc1ccc(NC(=O)CN(C)C(=O)c2cn3ccccc3n2)cc1OCC,-10.3%,-2.6%,x,x,x,22.6%,-7.1%,-12.0%
